KCNQ2 block = KCNQ2 potassium channel inhibitors, primary screen, cell-based, CHO-K1, FluxOR thallium flux, B-score (AID 2156); O88943; 20 min; active compounds read low; only compounds with negative scores are shown here; some inactives read as strong as hits; B-score at 10 µM; hit rate 1.1% among 310,000;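 active = fluorescence ratio B-score at most minus 3 library SDs, with starting brightness B-score within 2 library SDs, cut at about -5.5 in these data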
Target sequence (O88943 whole entry, looked up): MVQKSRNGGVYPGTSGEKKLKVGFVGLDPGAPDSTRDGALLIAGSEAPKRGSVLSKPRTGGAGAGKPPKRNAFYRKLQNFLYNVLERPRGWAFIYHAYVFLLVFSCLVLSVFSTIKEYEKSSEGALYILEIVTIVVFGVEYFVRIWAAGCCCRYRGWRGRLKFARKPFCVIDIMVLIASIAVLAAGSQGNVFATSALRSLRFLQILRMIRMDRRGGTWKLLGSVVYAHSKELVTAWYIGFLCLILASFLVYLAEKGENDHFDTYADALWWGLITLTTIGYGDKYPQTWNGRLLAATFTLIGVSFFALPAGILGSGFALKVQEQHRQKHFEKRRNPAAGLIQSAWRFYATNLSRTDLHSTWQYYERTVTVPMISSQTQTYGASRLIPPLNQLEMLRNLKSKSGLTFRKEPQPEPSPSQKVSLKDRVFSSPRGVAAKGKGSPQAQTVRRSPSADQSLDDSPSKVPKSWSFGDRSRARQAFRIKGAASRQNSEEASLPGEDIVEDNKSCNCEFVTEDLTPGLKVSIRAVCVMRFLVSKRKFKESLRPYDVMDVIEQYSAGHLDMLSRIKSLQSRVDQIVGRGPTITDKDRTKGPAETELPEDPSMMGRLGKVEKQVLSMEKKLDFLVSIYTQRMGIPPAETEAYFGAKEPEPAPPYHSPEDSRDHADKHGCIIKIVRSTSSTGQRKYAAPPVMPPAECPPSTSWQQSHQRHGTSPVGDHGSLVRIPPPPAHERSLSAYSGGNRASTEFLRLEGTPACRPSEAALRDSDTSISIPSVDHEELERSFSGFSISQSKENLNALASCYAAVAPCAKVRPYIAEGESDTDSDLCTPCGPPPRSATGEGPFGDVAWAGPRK
KCNQ2 block baseline = also measured in KCNQ2 block; calls as there; B-score; measured here: initial fluorescence intensity artifact check;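 brightness before thallium and not channel activity; 0 = typical well and far values either way flag optical interference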
* marks the source's active call; other numbers are inactive results; i = inactive.

Start of the listing, in advance:
Values run as follows: KCNQ2 block | KCNQ2 block baseline
> CC(C)(C)OC(=O)N1CCC(C(=O)N[C@@H](Cc2c[nH]c3ccccc23)C(=O)O)CC1
  i | 0.38
> Cc1ccc2c(c1)N(CC(=O)NCCc1c[nH]c3ccccc13)C(=O)CO2
  i | 0.09

All compounds of this part, repeating the preview:
Values run as follows: KCNQ2 block | KCNQ2 block baseline
> CC(C)(C)OC(=O)N1CCC(C(=O)N[C@@H](Cc2c[nH]c3ccccc23)C(=O)O)CC1
  i | 0.38
> Cc1ccc2c(c1)N(CC(=O)NCCc1c[nH]c3ccccc13)C(=O)CO2
  i | 0.09
> Cc1[nH]c(C)c(S(=O)(=O)N2CCN(c3cccc(Cl)c3)CC2)c1C(=O)N1CCCCC1
  i | 2
> CC1CC(C)CN(C(=O)COc2ccc([N+](=O)[O-])cc2Cl)C1 (stereo unspecified)
  i | 2.1
> Cc1ccc(C(=O)C(C(=O)/C=C/c2ccccc2)=C2SCCCS2)cc1
  i | -0.94
> Cc1cc(S(=O)(=O)N2CCC3(CC2)OCCO3)c(C)cc1Cl
  i | -0.69
> CNC(=S)N/N=C/c1cc(Br)c(OCc2ccncc2)c(OC)c1
  i | 1.6
> NNc1ncnc2sc3c(c12)CCC3
  i | 0.16
> O=C(CN1C(=O)c2ccccc2S1(=O)=O)NCCSCc1ccco1
  i | -1.4
> COc1ccc(NS(=O)(=O)c2cc(NC(=O)[C@@H](NC(=O)c3ccccc3)C(C)C)ccc2C)cc1
  i | 0.36
> COc1ccccc1CCC(=O)Nc1cccc(S(=O)(=O)N2CCCCCC2)c1
  i | 0.1
> CN1CCN(c2nc3ccccc3nc2C(C#N)S(=O)(=O)c2ccccc2)CC1 (stereo unspecified)
  i | -1.3
> COc1ccc(Cn2c(O)c(C=Nc3ccccc3C(=O)O)c3ccccc3c2=O)cc1
  i | 1.9
> CC1(C)CC2CC(C)(CN2C(=O)c2cccs2)C1 (stereo unspecified)
  i | 0.01
> CCOC(=O)CSc1nnc(CCCCCN2C(=O)c3cccc4cccc(c34)C2=O)o1
  i | -0.34
> OCCN1CCN(c2ncnc3nc[nH]c23)CC1
  i | -0.81
> COc1ccc(S(=O)(=O)N(Cc2ccccc2)Cc2nc(-c3ccccc3)no2)cc1
  i | 0.61
> CCC(=O)NC(=S)Nc1ccc(S(=O)(=O)NC(C)C)cc1
  i | 0.09
> CN(C(=O)CCN1C(=O)c2ccccc2C1=O)C1CCCCC1
  i | -0.03
> COc1ccc(/C=C/C(=O)NC(=S)NCCc2ccc(OC)c(OC)c2)cc1
  i | 1.2
> Cc1ccc(S(=O)(=O)N(CC(=O)Nc2cccc(N(C)S(C)(=O)=O)c2)c2ccc(Cl)c(Cl)c2)cc1
  i | 0.06
> NS(=O)(=O)c1ccc(CNC(=S)NCc2ccc(F)cc2)cc1
  i | 0.85
> O=C(NCc1ccccc1OC(F)(F)F)C1CCC(=O)N(C2CC2)C1 (stereo unspecified)
  i | -0.43
> COCC(C)NC(=O)CCc1nnc(C2(c3ccc(Cl)cc3)CCC2)o1 (stereo unspecified)
  i | 0.06
> CC1CN(S(=O)(=O)c2ccc(C(=O)Nc3nnc(-c4ccco4)o3)cc2)CC(C)O1 (stereo unspecified)
  i | -0.86
> COc1ccc(CCN(C)CC(O)COc2c(C)ccc(C)c2C)cc1OC (stereo unspecified)
  i | 0.82
> O=C1NCCN(Cc2ccc(Cl)c(F)c2)C1CC(=O)N1CCc2ccccc2C1 (stereo unspecified)
  i | 2.1
> Cc1ccc(Cn2c(=S)[nH]c3ccccc3c2=O)cc1
  i | 2.2
> CCS(=O)(=O)c1ncc(Cl)c(C(=O)Nc2ccc(S(=O)(=O)N(C)c3ccccc3)cc2)n1
  i | -5.9
> Cc1cc(C)c(NC(=O)CN(C)S(=O)(=O)c2ccc3c(c2)n(C)c(=O)c(=O)n3C)c(C)c1
  i | -0.97
> COc1ccc(C(=O)Oc2ccc(C(C)=O)cc2)c(OC)c1
  i | -2
> O=C(CCc1ccccc1)N1CCCN(C(=O)CCc2ccccc2)CC1
  i | -2.7
> CSc1ccc(CCNC(=O)c2cc(-c3ccccc3)c(N3CCOCC3)s2)cc1
  i | -1.5
> Cc1ccc(S(=O)(=O)NC(C(=O)Oc2ccc3ccc(=O)oc3c2)c2ccccc2)cc1 (stereo unspecified)
  i | 0.03
> NC(=O)C1CCN(c2c([N+](=O)[O-])cc(C(F)(F)F)cc2[N+](=O)[O-])CC1
  i | 0.82
> COc1ccc(N2C(=O)CC(N3CCN(S(=O)(=O)c4ccc(Cl)cc4)CC3)C2=O)cc1 (stereo unspecified)
  i | -0.15
> Cc1onc(C(=O)Nc2c(C)n(C)n(-c3ccccc3)c2=O)c1[N+](=O)[O-]
  i | 1.8
> COc1cccc(CC(NC(C)=O)C(=O)NC2CCN(c3nc(C)cc(C)c3C#N)CC2)c1OC (stereo unspecified)
  i | -1.6
> Cc1cc(Cl)ccc1NC(=O)CCCN1C(=O)CCC1=O
  i | -0.24
> CCOC(=O)C(CC)(CCC(=O)OC)c1csc(Nc2ccccc2O)n1 (stereo unspecified)
  i | -0.36
> CCc1ccccc1NC(=S)N1CCCCCC1
  i | -0.25
> CN1CCN(Cn2cc(/C=C/C(=O)c3ccccc3)c3ccccc32)CC1
  -9.2* | 1.3*
> COc1ccccc1OCCNC(=O)C(CCSC)NC(=O)c1ccccc1Cl (stereo unspecified)
  i | -0.67
> Cc1ccc(N2C(=O)CC(N3CCN/C3=C3\CC/C(=C\c4ccccc4)C3=O)C2=O)cc1 (stereo unspecified)
  i | 1.3
> Cc1ccc(C(=O)Nc2ccc(N3CCN(C)CC3)nc2)cc1
  i | -2.1
> CC1CCc2c(sc3ncnc(NCCCOC(C)C)c23)C1 (stereo unspecified)
  i | 0.6
> CC(=O)c1ccc(S(=O)(=O)Nc2cccc(-c3ccc4nncn4n3)c2)cc1
  i | 3
> Cc1cccc(N2CCN(C(=O)C3CCN(S(=O)(=O)c4c(C)noc4C)CC3)CC2C)c1 (stereo unspecified)
  i | 2.5
> Cc1nn(C)c(Sc2ccccc2N)c1[N+](=O)[O-]
  i | -0.07
> CCNC(=O)c1sc(=S)n(CC)c1N
  i | 1.9

More compounds follow.
Values run as follows: KCNQ2 block | KCNQ2 block baseline
> Cc1ccc(NC(=O)Cn2c(O)c(N=NS(=O)(=O)c3ccc(C)cc3)c3ccccc32)cc1
  i | -0.78
> O=C(O)Cc1csc(Nc2cccc(Cl)c2)n1
  i | -0.43
> O=C(C1CC1)N1CCc2sccc2C1c1ccc(Cl)cc1 (stereo unspecified)
  i | 1.1
> COc1cc2c(cc1OC)CC1(CCCCC1)N=C2
  i | -1.3
> O=C(c1ccc(Br)o1)N1CCC(Cc2ccccc2)CC1
  i | 0.2
> CC(C)c1cc(C(=O)N2CCCC(N3CCN(c4ccc(F)cc4)CC3)C2)n(C)n1 (stereo unspecified)
  i | -0.47
> O=C(NCCCN1CCN(c2ccccc2F)CC1)C1CCC(=O)N1C1CCCC1 (stereo unspecified)
  i | -0.69
> CCOC(=O)N1CCC(NC(=O)CCC(=O)N2CCOc3ccc(Cl)cc32)CC1
  i | -1.7
> O=C(CCNS(=O)(=O)c1ccc2[nH]c(=O)oc2c1)Nc1ccccc1
  i | -0.02
> O=C(Oc1cc2oc(=O)c3c(c2cc1Cl)CCCC3)c1cccs1
  i | -0.86
> Oc1ccc(N2CCN(c3nc(-c4cccs4)nc4ccccc34)CC2)cc1
  i | 0.07
> Cc1ccccc1NC(=O)NNC(=O)OC(C)(C)C
  i | -0.35
> CC(C)CCNc1c(-c2cccs2)nc2ccccn12
  i | -0.14
> CCN(c1ccc(NC(=O)COC(=O)CCC(=O)c2ccc(F)cc2)cc1)C(C)C
  i | -0.29
> COc1ccc(C2C=C(c3ccc(Br)cc3)Nc3nc(N4C(=O)CCC4=O)nn32)cc1 (stereo unspecified)
  i | 5.9
> CCCSc1ccc([C@@H]2[C@H]3C(=O)N(CC)C(=O)[C@H]3[C@]3(C(=O)OC)CCCCN23)cc1
  i | 0.86
> O=C(NNC(=S)Nc1ccc(Cl)c(Cl)c1)c1cccc([N+](=O)[O-])c1
  i | -0.33
> COc1ccc(OC)c(C2=NO[C@@H]3C(=O)N(c4cc(Cl)ccc4OC)C(=O)[C@H]23)c1
  i | 0.85
> O=C(Nc1nnc(C2CC2)s1)C1Cc2ccccc2CN1S(=O)(=O)c1cccs1 (stereo unspecified)
  i | 0.69
> O=C(c1ccccc1F)N1CCCc2ccccc21
  i | -0.08
> CC1(C)CC(=O)C=C(C(=O)N2CCCC(C(=O)c3cccc(Cl)c3)C2)O1 (stereo unspecified)
  i | -1.6
> CCn1cc([N+](=O)[O-])c(C(=O)Nc2ccc3c(c2)OCCO3)n1
  i | -0.06
> O=C(NCCc1ccccc1)C(=O)NCC1OCCN1S(=O)(=O)c1ccc2c(c1)OCCO2 (stereo unspecified)
  i | 0.01
> C=CCSc1nnc(-c2cc3c(-c4ccccc4)nn(C)c3s2)n1C
  i | -1.7
> CC(=O)Nc1ccc(S(=O)(=O)N2CCN(C(=O)c3ncoc3-c3ccc(F)cc3)CC2)cc1
  i | -0.4
> Cc1onc(-c2c(Cl)cccc2Cl)c1C(=O)NCCCN1CCOCC1
  i | 1.8
> C=CCn1nc(-c2ccccc2)c2c(C)onc2c1=O
  i | 4.5
> CC1CCN(c2nc3c(c(=O)n(C)c(=O)n3C)n2Cc2ccccc2)CC1
  i | 0.02
> CC(CC(=O)Nc1ccc(-c2ccno2)cc1)n1cccn1 (stereo unspecified)
  i | 1.9
> CCOC(=O)c1cccc(NC(=O)c2ccc(N(C)C)cc2)c1
  i | 2.6
> COCc1nnc(SCC(=O)Nc2cccc(Cl)c2C)n1-c1ccccc1
  i | -0.54
> CCC(NC(=O)c1ccc(C#CC2(O)CCCCC2)cc1)C(=O)O (stereo unspecified)
  i | 1.4
> CCOC(=O)c1sc(NC(=O)c2ccc(OC)cc2)nc1C
  i | 1.9
> CC1(C)CC(NC(=O)COc2ccc3ccc(=O)oc3c2)CC(C)(C)N1
  i | 0.21
> COc1ccc2ccccc2c1CN1CCN(C(=O)c2ccccc2)CC1
  i | -0.06
> CC1CN(c2ccc([N+](=O)[O-])c(NCCOc3ccccc3)c2)CC(C)N1 (stereo unspecified)
  i | -0.33
> O=C(c1cccc(Cl)c1)N(Cc1ccco1)C1CCS(=O)(=O)C1 (stereo unspecified)
  i | 0.6
> CCOc1ccc(NC(=O)CCCCCN2C(=O)[C@@H]3Cc4ccccc4CN3C2=O)cc1
  i | -2.1
> Clc1cccc(CSc2nnc(-c3ccccn3)n2Cc2ccco2)c1
  -6.7* | -1.1*
> C=CCN(c1ccccc1Cl)S(=O)(=O)c1cccc(C(=O)NCCc2ccc(OC)cc2)c1
  i | 0.77
> CCCN(C(=O)c1cn(-c2ccccc2)nc1-c1ccc(OC)cc1)C1CCS(=O)(=O)C1 (stereo unspecified)
  i | 0.69
> COC(=O)[C@@]1(Cc2ccc(OC)cc2)[C@H]2c3cc(C(=O)N(C)C)n(Cc4c(CO)[nH]cc(C)c4=O)c3C[C@H]2CN1C(=O)c1ccccc1
  i | 0.62
> COc1ccc(/C=N/NC(=O)CO/N=C(\C)c2cccs2)cc1
  i | 1.6
> O=C1CSC(=Nc2cccc(Cl)c2Cl)N1Cc1cccnc1
  i | -0.16
> COc1ccccc1OCCSc1nnnn1-c1ccc(C)cc1
  i | 0.44
> COCCCNC(=O)c1ccccc1N(Cc1ccccc1)S(=O)(=O)c1ccc(OC)cc1
  i | 0.46
> Cc1ccc(P(=O)(CC(=O)O)c2ccc(C)cc2)cc1
  i | -0.46
> CC(C)C1C(C#N)=C(N)Oc2n[nH]c(-c3ccccc3)c21 (stereo unspecified)
  i | 1.3
> Cc1csc2c(=O)n3c(nc12)CCCCC3
  i | 0.31
> O=C(CCn1cnc2ncccc2c1=O)N1CCN(c2cccc(Cl)c2)CC1
  i | 0.79

An excerpt from above in order of molecular weight, largest number first.
Values run as follows: KCNQ2 block | KCNQ2 block baseline
> O=C(CCn1cnc2ncccc2c1=O)N1CCN(c2cccc(Cl)c2)CC1
  i | 0.79
> COc1ccc(/C=N/NC(=O)CO/N=C(\C)c2cccs2)cc1
  i | 1.6
> Cc1csc2c(=O)n3c(nc12)CCCCC3
  i | 0.31

Next entries follow.
Values run as follows: KCNQ2 block | KCNQ2 block baseline
> O=C(NCc1ccc(F)cc1)C(c1ccccc1)c1ccccc1
  i | 3.7
> CCc1ccc(/C(C)=N/NC(=O)CNC(=O)/C=C/c2ccccc2OC)cc1
  i | 1.6
> CN(c1ccccc1)S(=O)(=O)c1cccc(NC(=O)COC(=O)C2CCCCC2)c1
  i | 0.78
> Cc1ccc(C)c(CSc2nnc([C@@H]3CCCN3)o2)c1
  i | -0.69
> CCOCCn1c(CN(Cc2ccccc2)Cc2ccccc2)nc2c1c(=O)n(C)c(=O)n2C
  i | -0.26
> COc1ccc(C(C(=O)NCC2CCCO2)N(C(=O)CNC(=O)c2cccs2)c2ccc(C)cc2)cc1OC (stereo unspecified)
  i | 1.7
> COCCNC(=S)NN=C1CCC(c2ccccc2)CC1 (stereo unspecified)
  i | 0.2
> O=C(Cn1c(=O)oc2ccccc21)Nc1ccc2c(c1)OCCO2
  i | 0.77
> Cc1sc(NC(=O)CCS(=O)(=O)c2ccccc2)c(C#N)c1C
  i | -1.2
> CCOC(=O)C1CCN(Cc2ccccn2)CC1
  i | -0.13
> O=C1C=C(Nc2ccccc2O)c2ccccc2C1=O
  i | 0.09
> N#CCSc1nc(-c2ccccc2)nc2ccccc12
  i | 1.1

Profiles from above. Order of screens: KCNQ2 block	KCNQ2 block baseline
COCc1nnc(SCC(=O)Nc2cccc(Cl)c2C)n1-c1ccccc1 in the list: i	-0.54
COc1ccc(/C=C/C(=O)NC(=S)NCCc2ccc(OC)c(OC)c2)cc1 in the list: i	1.2
CC1CC(C)CN(C(=O)COc2ccc([N+](=O)[O-])cc2Cl)C1 (stereo unspecified) in the list: i	2.1
Cc1ccc(C)c(CSc2nnc([C@@H]3CCCN3)o2)c1 in the list: i	-0.69
CC1CCc2c(sc3ncnc(NCCCOC(C)C)c23)C1 (stereo unspecified) in the list: i	0.6

Screening data deposited in PubChem by Johns Hopkins Ion Channel Center.

An excerpt. The share of hits here may be higher or lower than overall.
